Bioassay records: PubChem BioAssay, several laboratories
A1 inh = caspase 3/7 activation in MEF A1-2A-BIM cells, primary screen, A1 inhibitor project, cell-based, luminescence, HTS | hit rate 0.066% among 330,000 | caspase activation, % (concentration not given with the values) | Caspase-Glo 3/7 luminescence, 3 h; percent of clofoctol response, vehicle zero;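 active means over half of replicate activation scores above 10%, or exactly half above 10 with the replicate mean above 10; inconclusive means replicate mean below 10 yet half the replicates above 10; inactive means over half of replicates below 10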;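 further: wells of about 30 µL received 50 nL stock; many hits fall short of the cut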
AF4-AF9 inh = inhibitors of AF4 peptide binding to AF9, primary screen, biochemical, AlphaScreen, biotin-AF4 peptide, FLAG-AF9, single point; hit rate 0.47% among 350,000; Protein AF-9 (Homo sapiens), P42568; inhibition, % at 10 µM;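 active means every replicate reaching a set inhibition limit, whatever the replicate mean, cut at about 25% in these data; inconclusive means mean inhibition reaches that limit but some replicates miss it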;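 further: 0% = plate neutral control median and 100% = total signal loss; the record names both 10 and 1 µM as test concentration; the first replicate is given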
Target sequence (P42568 whole entry, looked up): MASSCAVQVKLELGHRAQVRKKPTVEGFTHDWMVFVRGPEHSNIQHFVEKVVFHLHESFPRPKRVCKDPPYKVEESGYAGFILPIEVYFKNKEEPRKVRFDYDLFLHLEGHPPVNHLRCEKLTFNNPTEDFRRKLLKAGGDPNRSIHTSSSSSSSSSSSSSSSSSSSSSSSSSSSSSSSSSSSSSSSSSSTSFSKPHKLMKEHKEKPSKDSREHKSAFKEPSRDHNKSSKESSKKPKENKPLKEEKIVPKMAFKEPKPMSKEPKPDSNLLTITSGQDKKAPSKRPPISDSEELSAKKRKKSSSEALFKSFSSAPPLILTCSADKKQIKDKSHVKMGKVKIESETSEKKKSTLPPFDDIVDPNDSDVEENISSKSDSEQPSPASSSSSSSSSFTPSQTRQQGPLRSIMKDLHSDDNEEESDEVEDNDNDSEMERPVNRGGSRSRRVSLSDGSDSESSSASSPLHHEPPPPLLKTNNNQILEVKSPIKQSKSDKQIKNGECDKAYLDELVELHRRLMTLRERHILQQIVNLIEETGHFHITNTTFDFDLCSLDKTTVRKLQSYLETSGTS
LANA-H2B inh = blockers of LANA interaction with H2A/H2B – biochemical, FP readout, HTS, primary screen; hit rate 0.6% among 320,000; inhibition, % (concentration not given with the values); cell-free LANA-H2A/H2B peptide, fluorescence polarization; AID 2629, 2010; Protein LANA1 (Human herpesvirus 8 type P (isolate GK18)), Q9QR71; in the data active means inhibition mostly above about 10%, no sharp cut-off; inactive means mostly below about 6.7%;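 further: stock transfer was 7.5 nL into about 10 µL; 0% = median of vehicle wells and 100% = median of positive control wells; one replicate is shown; the record names a cut of 25% in any replicate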
Vif TR-FRET = inhibitors of Vif binding to APOBEC3G peptide, primary screen, biochemical, TR-FRET, GST-Vif 1-94, biotin-A3G peptide, dose response retest (AID 1117319); hit rate 0.57% among 260,000; TR-FRET GST-Vif / biotin-A3G peptide binding; higher % means a stronger effect; test concentration not given here; strong numbers were not always called active; Virion infectivity factor (Human immunodeficiency virus type 1 group M subtype B (isolate …; one-dose inhibition, %; IC50 in µM for titrated hits;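 active means above the screen mean plus three standard deviations and confirmed in dose response; inconclusive means results disagree or hit not tested in dose response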;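 further: Vif residues 1-94 fused to GST binding biotinylated APOBEC3G peptide 110-148; 0% = full assay without inhibitor and 100% = GST in place of GST-Vif; retest series ran down from 100 µM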
RanGTP-Imp inh = inhibitors of RanGTP-importin-beta interaction, primary screen, biochemical, FRET, CFP-Ran, YFP-importin-beta, homogeneous. Ran GTPase (GTP-bound) - importin-beta complex. cell-free CFP-Ran/YFP-importin-beta FRET ratio. inhibition, % (no concentration beside the values). hit rate 1.1% among 300,000. AID 2216, 2009;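 active means most replicates above 15%; inconclusive means exactly half above 15%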;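 further: 0% = DMSO wells and 100% = Ran loaded with GDP instead of GTP; wells of about 40 µL received 100 nL stock; the first replicate is given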
Beta cell apopt = inhibitors of cytokine-induced beta cell apoptosis, primary screen, luminescence. INS-1E cytokine-induced death, ATP luminescence, 48 h; percent of positive-control rescue, neutral wells zero. protection from apoptosis, % (no concentration beside the values). hit rate 0.8% among 300,000. AID 435005, 2010;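 active means all replicates at 75% or more, or half of them and the mean; inconclusive means half reach 75% but not the mean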;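 further: 0% = cytokine-treated negative control wells and 100% = positive control rescue; higher means more ATP so stronger rescue from cytokine killing; wells of about 40 µL received 100 nL stock; the first replicate is given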
Calb FLC = C. albicans growth inhibition with fluconazole, primary screen, CaCi-2 strain, Alamar Blue fluorescence. C. albicans CaCi-2 (fluconazole-resistant clinical isolate) + fluconazole, 48 h. growth inhibition, % (concentration not given with the values). hit rate 0.57% among 300,000;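 active means most replicates above 75%; inconclusive means exactly half above 75%; inactive means most below 75%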;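 further: all wells also contain fluconazole at 8 µg/ml as a sub-toxic cotreatment; 0% = median of DMSO wells and 100% = median of geldanamycin control wells; wells of about 8 µL received 7.5 nL stock; the first replicate is given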
T cruzi inh = inhibitors of intracellular T. cruzi growth, primary screen, luminescence, NIH3T3 host cells. T. cruzi beta-gal in NIH3T3, 90 h. inhibition, % (concentration not given with the values). hit rate 1.4% among 300,000;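 active means mean inhibition across valid replicates above about 55%, limit read from the data; inconclusive means mean below that limit but half or more replicates reach it; inactive means mean below it, under half of replicates reach it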;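 further: signal also drops with host cell toxicity which is not excluded here; 0% = plate median of DMSO wells and 100% = zero luminescence signal; higher percent means less beta-gal luminescence so fewer parasites; stock transfer was 50 nL into about 50 µL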
Numbers without * were called inactive; ? = inconclusive; . = no result given; & = joins results of further samples. Some of the compounds tested; count on the stated rates, not on these rows.

SMILES | A1 inh | AF4-AF9 inh | LANA-H2B inh | Vif TR-FRET | RanGTP-Imp inh | Beta cell apopt | Calb FLC | T cruzi inh
CC(=O)OC1N=C(c2ccccc2)c2cc(C)ccc2NC1=O (centres undefined) | 0.3 | . | 4.4 | -3% | 0.3 | 0 | 4 | .
Cc1cccc(CN2CCCC(C(=O)c3ccc4c(c3)OCO4)C2)n1 (centres undefined) | -1.3 | -1.3 | -0.9 | -3% | -1.7 | -1 | -16 | -3
COC(=O)C1=C(c2ccc(-c3ccccc3)c(F)c2)C[C@@H]2CC[C@H]1N2C(=O)N1CCc2cc(OC)c(OC)cc2C1 | 0.3 | 3.7 | 1.9 | . | . | -2 | . | .
CCN(CC)S(=O)(=O)c1ccc(C)c(NCC(=O)Nc2ccc(C#N)c(Cl)c2)c1 | 0.3 | . | -4.2 | 3% | 2.3 | 39 | ? | 36
O=C1NC(=O)N(Cc2ccco2)C(=O)/C1=C\c1cccn1CCOc1ccccc1 | -0.7 | -1.7 | -13 | . | 2.8 | -3 | -1 | -25
O=[N+]([O-])[N-][n+]1cnn(Cc2ccc(Cl)cc2)c1 | -0.7 | -0.4 | 10 | 8% | -0.1 | . | -3 | -17
Cn1c(=O)cc(OCC(=O)N2CCN(Cc3ccc4c(c3)OCO4)CC2)c2ccccc21 | -0.5 | . | -1.3 | ? | -0.7 | -5 | 20 | 15
C(#CCN1CCOCC1)COC/C=C/c1ccccc1 | 0.5 | . | 2.7 | 10% | 2.5 | -2 | 4 | -5
CC1(C)CC(n2[nH]c(=O)c3c2NC(=O)CSC3c2ccc(F)cc2)CCO1 (centres undefined) | 0.6 | . | -0.5 | 4% | -3.2 | 4 | -11 | -6
COc1cc(CN2CCCC(C(=O)c3sccc3C)C2)cc(OC)c1O (centres undefined) | -0.8 | 5.1 | 4.7 | 10% | 3.6 | 4 | 25 | 30
CCOP(=O)(OCC)C(NC(C)=O)C(Cl)(Cl)Cl (centres undefined) | 0.3 | . | 4.0 | 12% | -4.2 | -5 | -3 | -1
Cc1c2cnn(CC(=O)N3CCC4(CC3)OCCO4)c(=O)c2c(C)n1Cc1ccccc1F | -0.4 | . | -11 | 5% | 4.0 | 0 | -8 | 0
CCc1nc2ccccc2c(=O)n1-c1ccccc1[N+](=O)[O-] | 2.2 | . | 5.2 | 17% | 2.4 | . | 2 | -5
CCC12CN3CCN(CC(C3)/C1=N/NC(=O)c1ccncc1)C2 | -1.0 | -1.1 | -2.2 | 1% | 4.2 | . | 0 | -11
CN1C(=O)N(C)C(=O)C2(Cc3ccccc3N3CCOCC32)C1=O (centres undefined) | 0.0 | 0.9 | -8.6 | 3% | 5.1 | -4 | 7 | -4
C[N+]1(C)C2CC[C@H]1CC(OC(=O)C(CO)c1ccccc1)C2 (some centres undefined) | 2.6 | -4.0 | -0.2 | . | . | -3 | . | .
O=C1c2cccc3cccc(c23)C(=O)N1/N=C/c1c(O)n(-c2ccccc2)c(=O)[nH]c1=O | 2.0 | -0.2 | 6.5 | 14% | 8.1 | -4 | 0 | -5
O=c1[nH]c(=O)n(C2CCCCC2)c(O)c1/C=N/N1CCCCC1c1cccnc1 (centres undefined) | 0.4 | -7.4 | 1.4 | -11% | 6.6 | 5 | -2 | -3
C[C@]12CCC(=O)C=C1CC[C@@H]1C2CC[C@]2(C)C(=O)CCC12 (some centres undefined) | 1.2 | -0.5 | -0.6 | -2% | 1.4 | . | 11 | 12
NN=C(N)N | -0.7 | -4.2 | -1.6 | . | . | -2 | . | .
CCOC(=O)C(O)(c1ccc(NC(=O)c2ccc(Cl)c(Cl)c2)cc1)C(F)(F)F (centres undefined) | 0.3 | 1.7 | -1.0 | 4% | 5.2 | 6 | 17 | 51
CCOC(=O)C1(CCc2ccccc2)CCN(CC(O)CO)CC1 (centres undefined) | -0.5 | -4.5 | -2.9 | -2% | -0.3 | . | -3 | -20
c1cncc(C2Nc3cccc4cccc(c34)N2)c1 | 0.8 | 5.1 | 1.2 | 18%&1% | 3.0 | -1 | 40 | 3
CCOc1ccc(NC(=O)c2c(O)[nH]c(=O)[nH]c2=O)cc1 | -11 | 1.2 | -7.8 | . | 1.2 | -3 | 2 | -26
O=C(c1cc(-c2ccccc2)nc2ccccc12)N1CCC2(CC1)OCCO2 | 0.4 | ? | -1.0 | -1% | -0.1 | -1 | -19 | -9
SMILES | A1 inh | AF4-AF9 inh | LANA-H2B inh | Vif TR-FRET | RanGTP-Imp inh | Beta cell apopt | Calb FLC | T cruzi inh
CCOP(=O)(CN(CC)CCNP(=O)(OCC)OCC)OCC | 0.8 | . | 0.1 | 12% | -3.3 | -13 | 24 | -6
NC(=O)c1cc(N2CC2)c([N+](=O)[O-])cc1[N+](=O)[O-] | 0.1 | 1.2 | 2.5 | . | -1.2 | -2 | . | 38
O=P(Oc1ccccc1)(Oc1ccccc1)C(O)c1ccc(Cl)cc1 (centres undefined) | 1.6 | 0.9 | 1.7 | . | -1.1 | -4 | -2 | 7
CCCCOC(=O)COc1cc(C)cc2oc(=O)c3c(c12)CCC3 | 0.1 | . | 1.7 | 30% | 0.1 | 3 | 2 | -12
O=C(O)C1C2CCC(O2)C1C(=O)NC1CCCCC1 (centres undefined) | -0.3 | 0.5 | 0.9 | . | -0.8 | . | -8 | -23
COc1ccc(CN2CCCC(C(=O)c3ccc(Cl)cc3)C2)c(OC)c1 (centres undefined) | -0.4 | 0.0 | -1.5 | . | 1.7 | 2 | 24 | 38
O=c1c2ccccc2nc(N2CCCC2)n1-c1ccccc1 | -0.3 | 2.7 | -4.1 | 2% | 0.9 | -1 | 7 | -26
O=c1c2ccccc2nc(-c2ccoc2)n1-c1ccccc1 | -0.2 | 6.2 | 0.1 | -6% | -1.6 | 5 | -2 | -4
COc1cc(C(=O)OC2C[C@H]3CC[C@@H](C2)N3)ccc1O (some centres undefined) | 1.3 | 4.0 | 2.6 | 2% | 0.9 | -10 | -5 | 0
COc1ccc(CC2C(=O)N(C)C(=O)N(C)C2=O)c(OC)c1 | -0.6 | . | -2.8 | -3% | 0.9 | -4 | 17 | -10
CC(C)OC(=O)c1c(N)n(CC2CCCO2)c2nc3ccccc3nc12 (centres undefined) | 1.0 | . | 0.2 | -2% | 24* | -9 | 1 | -11
O=C(c1cc2ccccc2oc1=O)N1CCC2(CC1)OCCO2 | -1.1 | . | 0.3 | 1% | 4.7 | -7 | 9 | -3
CC(C)OCCCNC(=O)c1c(N)n(Cc2cccs2)c2nc3ccccc3nc12 | 0.3 | . | 5.3 | 27% | 80* | -11 | -7 | 50
CCC(C#N)(CC)P(=S)(c1ccccc1)c1ccccc1 | 0.8 | -9.2 | -8.0 | . | 6.9 | 10 | 6 | 14
COC(=O)C(O)(c1ccc(N(C)C(=O)COc2ccccc2)cc1)C(F)(F)F (centres undefined) | -0.2 | -3.2 | . | 19% | 3.1 | -2 | . | -2
CCOC(=O)c1cncn1[C@H](C)c1ccccc1 | 0.3 | . | 1.4 | -9% | 2.3 | -2 | . | -8
C=CCn1c(O)c(C=NCCN2CCNCC2)c(=O)[nH]c1=O | -0.5 | . | -3.6 | -3% | 1.6 | -5 | 7 | -7
CNC(=O)c1cccn(Cc2ccc(C(F)(F)F)cc2)c1=O | 1.4 | -1.8 | 4.4 | . | -1.0 | 10 | -5 | 2
CN(C)c1ccc(/C=C2\C(=O)NC(=O)N(CCc3ccc(F)cc3)C2=O)cc1 | -0.5 | -4.1 | 2.1 | 2% | -0.4 | -9 | 5 | -3
CCOc1ccc2[nH]c(=O)c(CN(CCO)C3(c4nnnn4C4CCCCC4)CCCCC3)cc2c1 | 1.7 | . | 1.9 | 1%&-2% | ? | 7 | 15 | 4
O=C(Nc1ccc2ccccc2c1)N1C[C@H]2C[C@@H](C1)c1cccc(=O)n1C2 | 0.0 | 1.7 | 2.2 | 1% | 1.3 | 3 | 18 | 31
CC(=O)N1CN2CN(C(C)=O)CC(C(=O)c3ccc([N+](=O)[O-])cc3)(C2)C1 | 0.2 | -0.1 | 0.7 | ? | 0.9 | -4 | 10 | 8
CCOC(=O)C1(c2ccccc2)CCN(CCC(=O)Nc2ccc(C(=O)OC)cc2)CC1 | -1.0 | -5.6 | -1.8 | -5% | . | -2 | . | .
COc1ccc(CCn2c(O)c(C=Nc3ccccc3F)c(=O)[nH]c2=O)cc1OC | -0.5 | 0.0 | -2.5 | -1% | ? | -4 | -4 | -15
N#CC1(c2ccccc2)CCN(C2CC(=O)N(c3ccc4c(c3)OCO4)C2=O)CC1 (centres undefined) | 0.1 | -0.9 | -4.2 | 20% | -3.8 | 0 | -2 | -19
SMILES | A1 inh | AF4-AF9 inh | LANA-H2B inh | Vif TR-FRET | RanGTP-Imp inh | Beta cell apopt | Calb FLC | T cruzi inh
N=C1c2ccccc2CN1NC(=O)c1ccc(Br)o1 | 0.4 | -4.4 | -6.5 | . | 3.4 | -4 | -6 | -7
O=C1/C(=C\c2ccc(Cl)cc2Cl)N2CCC1CC2 | 0.2 | 3.0 | -3.2 | 2% | 3.9 | -15 | 6 | 5
Cc1ccc(C(=O)Nc2ccc(Cl)cc2C(=O)c2ccccc2)cc1 | 0.2 | . | 1.1 | -9% | . | 14 | -34 | -13
COc1ccc(Cl)cc1NC1=NCC(C)S1 (centres undefined) | 0.6 | . | 4.0 | 0%&-2% | -1.8 | . | -10 | -2
CNP(=S)(NC)OCCOc1ccc(OC)cc1 | -0.4 | . | -5.9 | 29% | 1.1 | -3 | -4 | -1
O=P1(Nc2cccnc2)COc2ccccc2OC1 | 0.2 | . | -3.2 | 0% | 0.1 | . | 13 | 5
O=C(NCc1cccnc1)C(Cl)(Cl)Cl | 0.0 | 2.0 | -5.5 | -4% | -4.2 | -2 | 6 | 2
CN1CCN(c2ncnc3ccc(Br)cc23)CC1 | 0.2 | . | 3.5 | 9% | -8.3 | . | 10 | 4
CCCSc1nc(O)c(CC)c(=O)n1C(C)CC (centres undefined) | ? | . | -0.2 | 3% | 0.1 | -6 | -8 | 4

3 structures from above, arranged by length of the SMILES, lowest first.
SMILES | A1 inh | AF4-AF9 inh | LANA-H2B inh | Vif TR-FRET | RanGTP-Imp inh | Beta cell apopt | Calb FLC | T cruzi inh
COc1ccc(Cl)cc1NC1=NCC(C)S1 (centres undefined) | 0.6 | . | 4.0 | 0%&-2% | -1.8 | . | -10 | -2
CNP(=S)(NC)OCCOc1ccc(OC)cc1 | -0.4 | . | -5.9 | 29% | 1.1 | -3 | -4 | -1
O=C1/C(=C\c2ccc(Cl)cc2Cl)N2CCC1CC2 | 0.2 | 3.0 | -3.2 | 2% | 3.9 | -15 | 6 | 5
